Assay outcomes: PubChem BioAssay, several laboratories
MT1-MMP act inh – blockers of MT1-MMP proenzyme processing, primary screen, HT1080 RFP-PRO-GFP cells, GFP/RFP fluorescence | hit rate 0.061% among 360,000 | Matrix metalloproteinase-14 (Homo sapiens), P50281 | GFP/RFP ratio fluorescence, overnight; percent of plate control window, DMSO zero | AID 651647, 2012 | GFP/RFP ratio change, % at 20 µM;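 active = GFP/RFP ratio change of at least 30% with cell ATP level not reduced by more than half and red fluorescence within 50% of control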; also: strong numbers were not always called active
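Assay system: HT1080 cells carrying an RFP-PRO-GFP reporter | Dosing: Single dose of 20 µM compound, 1% DMSO final | Incubation: Cells overnight before dosing, compound overnight, 37 °C, 5% CO2 | Evaluation: GFP/RFP fluorescence ratio | Control set: DMSO and RFP-L50D-GFP cell wells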
Rce1 inhib – yeast Rce1p protease inhibitors, primary screen, biochemical, fluorescence, cell-free homogeneous; yeast membranes, quenched prenylated peptide cleavage fluorescence; calls only; hit rate 0.27% among 290,000;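 active = fall in fluorescence gain of 50% or more versus controls, with final raw signal at or below 3038400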;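 also: plate controls were neutral control wells for no effect and wells lacking membranes for full effect; tested at 10 µM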
PABP polyA inh – PABP poly(A) RNA binding inhibitors, primary screen, biochemical, fluorescence polarization, uHTS. Polyadenylate-binding protein 1 (Homo sapiens), P11940. inhibition, % at 35 µM. hit rate 1% among 290,000. AID 2014, 2009;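 active = 50% or more with normal probe brightness, or confirmed in later tests; about a fifth of its hits are not listed in these tables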;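 also: calls also rest on retests at 20 µM and on dose response follow-up; controls were probe without protein and protein plus probe with vehicle; some compounds called inactive have numbers as strong as hits; many hits fall short of the cut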
Target sequence (P11940 whole entry, looked up): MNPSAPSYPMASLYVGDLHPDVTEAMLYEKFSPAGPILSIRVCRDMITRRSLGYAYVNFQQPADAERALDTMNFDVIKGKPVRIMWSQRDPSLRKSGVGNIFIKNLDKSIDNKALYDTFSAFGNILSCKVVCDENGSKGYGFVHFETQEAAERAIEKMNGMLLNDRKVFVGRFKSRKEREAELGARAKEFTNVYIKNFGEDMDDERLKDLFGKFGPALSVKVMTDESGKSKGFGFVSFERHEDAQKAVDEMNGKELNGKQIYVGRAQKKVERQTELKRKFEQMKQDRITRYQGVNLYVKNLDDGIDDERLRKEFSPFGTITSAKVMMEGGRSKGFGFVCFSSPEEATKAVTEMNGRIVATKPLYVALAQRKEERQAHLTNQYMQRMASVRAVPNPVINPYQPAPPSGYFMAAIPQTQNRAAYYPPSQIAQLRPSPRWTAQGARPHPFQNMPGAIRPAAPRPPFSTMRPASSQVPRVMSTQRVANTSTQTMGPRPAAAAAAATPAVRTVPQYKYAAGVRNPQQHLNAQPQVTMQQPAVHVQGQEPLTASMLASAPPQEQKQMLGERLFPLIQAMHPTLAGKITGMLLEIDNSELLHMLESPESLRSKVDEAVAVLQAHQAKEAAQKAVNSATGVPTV
Env fusion inh – inhibitors of HIV-1 Env-driven cell-cell fusion, primary screen, HeLa-JRFL effector, CEM21 target cells, luciferase | AID 651610, 2012 | hit rate 1.1% among 360,000 | inhibition, % at 12.3 µM;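 active = mean replicate inhibition score of at least 50 and every replicate individually at or above 50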;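 also: 0% = plate neutral controls and 100% = maraviroc near 300 nM; one replicate is shown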
eIF4H FP inh – human eIF4H binding inhibitors, primary screen, translation initiation inhibitor project, biochemical, uHTS, fluorescence polarization; Eukaryotic translation initiation factor 4H (Homo sapiens), Q15056; eIF4H fluorescence polarization binding assay; inhibition, % at 35 µM; hit rate 0.94% among 290,000; AID 2012, 2009;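 active = 50% or more with normal probe brightness, or confirmed in later tests; about a fifth of its hits are not listed in these tables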;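 also: calls also rest on retests at 20 µM and on dose response follow-up; 0% = protein and probe with vehicle and 100% = probe without protein; strong numbers were not always called active; many hits fall short of the cut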
CSC inhib – cancer stem cell viability inhibitors, primary screen, luminescence; hit rate 1.1% among 300,000; cancer stem cell-like cells viability; inhibition, % at 7.5 µM; AID 2717, 2010;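 active = mean at 75% or more and at least half the replicates too; tested in HMLE shEcad cells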;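 also: 0% = median of negative and 100% = median of positive control wells; the first replicate is given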
Yeast UUG start – modulators of yeast start codon fidelity, primary screen, whole organism, S. cerevisiae, single point, plate reader; S. cerevisiae UUG-firefly luciferase reporter, luminescence/redox ratio; activity score, % at 18.7 µM; hit rate 0.13% among 350,000; AID 602363, 2012;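 active = replicate mean at a twofold rise or more, about +100% in these data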;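 also: firefly luciferase made from a UUG start codon reports start codon fidelity; reporter light over untreated wells divided by growth signal over untreated wells; some hits fall short of that in this replicate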
MT1-MMP act inh RFP – also measured in MT1-MMP act inh; calls as there; RFP signal change, %; measured here: RFP expression control read;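 0 = vehicle wells; hits needed this value within 50% of zero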
Active calls of the source: *; i = inactive; / = no result given. A portion of the library; count on the stated rates, not on these rows.

Values in the order – MT1-MMP act inh, MT1-MMP act inh RFP, Rce1 inhib, PABP polyA inh, Env fusion inh, eIF4H FP inh, CSC inhib, Yeast UUG start
Cc1nc2c(OCc3ccc(C(F)(F)F)cc3)cccn2c1N(C)Cc1cccs1
 : 1, -14, /, /, 33, /, /, -27
O=S(=O)(NCc1cn2ccsc2n1)c1cccs1
 : -1, 4, i, 6, /, 2, -11, -21
CCOc1ccc(CCNC(=O)COC(=O)C2CC2)cc1OCC
 : 2, 6, i, /, 5, /, -8, /
CCc1nc2c(OCc3ccccc3)cccn2c1N(Cc1ccccc1)C(C)=O
 : -3, -2, /, /, -7, /, /, -14
COc1ccc(-c2cc(C(=O)OCC(=O)Nc3cc(C)on3)c3ccccc3n2)cc1OC
 : 6, 4, i, 1, /, -5, -5, /
Cc1nc(/C=C/c2ccccc2)cc(/C=C/c2ccccc2)n1
 : -5, -4, i, 1, -40, -2, -6, -6
NC(=O)c1nsc(C(=O)N(CC(=O)NCc2ccco2)c2ccccc2F)c1N
 : -2, -4, i, 0, /, 2, 5, -6
COc1ccc(-n2c(SCC(=O)OC(C)C)nnc2-c2ccccn2)cc1
 : 1, 2, i, -10, -40, -3, -12, -23
O=C(CN1CCCCCC1)OCCN=C1NS(=O)(=O)c2ccccc21
 : 4, 6, i, 2, /, -3, /, -13
COc1ccc(OC)c2c1C(=O)C(Cl)=C(Cl)C2=O
 : -21, 8, i, 8, 94*, -10, 96*, -38
O=c1[nH]c(/C=C\c2cccc(C(F)(F)F)c2)nc(O)c1[N+](=O)[O-]
 : 1, 2, i, 15, 5, 4, /, -12
CCN1C(=O)C(=O)N(CC(=O)c2[nH]c(C)c(C(C)=O)c2C)C1=O
 : 1, 3, i, /, 5, /, -11, -1
COc1ccc(S(=O)(=O)NCCc2c(C)nn(C)c2Oc2ccccc2)cc1
 : 0, -5, i, -7, 11, 6, 3, -14
CC1=C(C(=O)N(C)C)CC(CC(=O)NCc2cccc3ccccc23)C(=O)N1CCCN1CCCC1=O (stereo not given)
 : -5, 3, /, /, -6, /, /, 3
CCCn1c(COc2ccccc2OC)nc2ccccc21
 : -1, -4, i, 2, -31, -3, 6, -18
CCOc1ccc(N2CSC3=C(C#N)C(c4ccco4)CC(=O)N3C2)cc1 (stereo not given)
 : 2, 3, i, 87*, /, 92*, -3, -14
COC(=O)c1ccc(N2C(=O)c3ccc(OC)c(OC)c3C2=O)cc1
 : -16, -6, i, -1, /, -10, 2, /
Cn1nc2c(c1C(=O)N1CCCC(C(=O)c3cc(F)ccc3F)C1)CCCC2 (stereo not given)
 : 3, -5, i, 0, 22, -2, -9, /
O=C(CN(Cc1cccs1)S(=O)(=O)c1ccc(S(=O)(=O)N2CCCCC2)cc1)Nc1ccccc1
 : 3, -3, i, 17, /, 1, -5, /
Cc1ncc(CO)c(/C=N/NC(=O)c2cc3c(s2)CCCC3)c1O
 : -24, -4, i, 23, 16, 23, 72, /
COc1ccccc1C(=O)NC(CCSC)C(=O)OCC(=O)NC(=O)NCc1ccco1 (stereo not given)
 : 1, 3, i, -7, /, 0, -2, -3
COc1cc(C=O)cc(Br)c1OCC(N)=O
 : -1, 6, i, 1, 16, -9, /, /
O=C(NN=C1CCCCCCCCCCC1)c1ccccc1F
 : 1, 3, i, -12, -12, -2, 10, 17
COCc1[nH]nc2c1C(c1ccccc1F)C(C#N)=C(N)O2 (stereo not given)
 : -4, -1, i, -5, 26, -5, 8, -31
COc1ccc(/C=N/NC(=O)c2cnccn2)c(OC)c1OC
 : -1, 1, i, -6, -30, 0, -9, /
CCCCn1cnc2c(SCc3ccccn3)nc(N)nc21
 : 4, -1, /, /, 5, /, /, -17
CCCc1nc2c3ccccc3ccn2c1Cc1cccc(Cl)c1
 : -1, 1, /, /, -14, /, /, 38
CC(C)CNc1ncnc2c1cnn2Cc1ccccc1Cl
 : 2, 0, i, -4, 12, -13, -5, 1
C=CCNC(=O)CSc1nnc(-c2cccc(S(=O)(=O)N3CCOCC3)c2)o1
 : 2, 5, /, /, 7, /, /, -10
CCCCCC(=O)Nc1cc(S(=O)(=O)N2CCCCC2)ccc1N1CCCCC1
 : -13, -20, /, /, 17, /, /, -26
Cc1sc2c(c1C)CN(C(C)(C)C)CN2C(=O)c1ccccc1
 : -4, 3, i, 35, /, 21, -1, /
O=C(COC(=O)CC1CC2CCC1C2)Nc1cccc(S(=O)(=O)NC2=NCCCCC2)c1 (stereo not given)
 : -3, 2, i, 3, 10, 4, 4, 4
CC1C(=O)N2CCCc3cc(NC(=O)COc4ccc(Cl)cc4)cc1c32 (stereo not given)
 : 1, 2, i, /, -5, /, -8, 13
CC(C)[C@H](NS(=O)(=O)c1ccccc1)C(=O)OCC(=O)Nc1ccccc1Sc1ccccc1
 : -4, -3, i, 7, /, 1, -12, -20
Cc1nc(N)c(Cc2ccccc2F)c(N)n1
 : 1, 5, i, -4, -30, 0, -13, /
CCOC(=O)CC1=C(C(=O)OCC)C(c2ccncc2)C(C#N)=C(N)O1 (stereo not given)
 : -6, 5, /, 14, /, 20, /, -17
Cc1cc(C)nc(NS(=O)(=O)c2ccc(N3C(=O)C4CC=C(Cl)CC4C3=O)cc2)n1 (stereo not given)
 : 1, 5, /, -2, 3, -7, /, -8
COc1cccc(NC(=O)NC2CCCCC2C)c1 (stereo not given)
 : 4, 0, i, -1, 30, 8, 1, /
CCOC(=O)c1cnc(-c2ccccc2)nc1N
 : 0, -1, i, -6, /, 9, 2, -12
Nc1nc2c(c(=O)[nH]1)C(c1ccccc1)C1=C(N2)c2ccccc2C1=O (stereo not given)
 : 13, 2, i, 8, -4, 0, 7, -10
CN1CCc2c(sc3c2c(NCc2ccco2)nc2nnnn23)C1
 : -5, -1, i, 94*, -59, 68*, -6, -14
O=C(O)CC(NC(=O)c1ccncc1)c1ccccc1 (stereo not given)
 : 3, 3, i, -5, 14, -9, -1, /
CC(=O)N/C(=C\c1ccccc1)C(=O)OCc1cccc(S(=O)(=O)N(C)C)c1
 : 2, -21, i, 5, 16, 2, 3, -5
O=C(O)c1ccc(-c2ccc(OS(=O)(=O)c3ccccc3F)cc2)cc1
 : -2, 5, i, -5, -12, -2, 11, 1
N[C@@H](Cc1ccccc1)c1nnc2sc(SCc3ccccc3)nn12
 : 0, -2, i, 11, -46, -8, 12, -22
CCc1ccc(C2CC(c3ccc(Cl)cc3)n3nc(N)nc3N2)cc1 (stereo not given)
 : 0, -1, i, -6, -2, -2, -14, -5
Cc1c(C)c2ccc(OCC(=O)N(C)C3CCS(=O)(=O)C3)c(C)c2oc1=O (stereo not given)
 : 3, 3, i, 0, -1, -1, -1, -6
Cc1ccsc1C1C(C#N)=C(N)OC2=C1C(=O)CC(C)C2 (stereo not given)
 : 0, 4, i, -6, 13, -5, -8, /
CCOc1ccc(OCCC(=O)OCC(=O)Nc2ccc(Cl)cn2)cc1
 : 3, 4, i, /, 9, /, -7, 21
CN(C)S(=O)(=O)c1cccc(COc2cccnc2[N+](=O)[O-])c1
 : 6, 6, i, 12, -11, -6, -13, -2
O=C(CCC1CCCN(C(=O)c2ccncc2)C1)NCc1ccc(F)c(F)c1 (stereo not given)
 : -5, -3, i, 0, 5, -5, 36, /
O=C1C(=O)N(CCOCCO)C(c2ccccn2)/C1=C(\O)c1ccccc1 (stereo not given)
 : 0, -2, i, 8, /, -6, 3, 3
O=C(CCc1ccc(S(=O)(=O)N2CCOCC2)cc1)NN=C1CCCCCCC1
 : 4, 4, i, -8, 4, -12, -7, /
CCC(CC)C1C(C#N)=C(N)SC(N)=C1C#N
 : -11, -5, i, -1, 14, 11, -4, -33
O=C(O)Cn1cc(C(=S)N2CCCCC2)c2ccccc21
 : 1, 4, i, 1, 3, 2, 1, /
CCOc1ccc(S(=O)(=O)N2CCN(C(=S)NCc3ccccc3)CC2)cc1
 : 3, -8, i, 1, 11, -2, 1, -22
Cc1ccc(NC(=O)NNC(=O)COc2ccc(Cl)cc2)cc1
 : 4, 2, i, /, 2, /, -2, /
COc1ccc(OC)c(CN2CCN(C(=O)c3ccc(NS(=O)(=O)c4cccc([N+](=O)[O-])c4)cc3)CC2)c1
 : 1, -7, i, /, -151, /, 2, -14
C=CCOc1c(Cl)cc(CNc2ccc(C)c(Cl)c2)cc1OC
 : /, /, i, -5, /, 1, 54, /
CC(C)(C)OC(=O)NNC(=O)c1ccc(Cl)cc1
 : 1, 4, i, -1, /, 0, -6, /

Four of the compounds above, as comma-separated lines.
Compound,MT1-MMP act inh,MT1-MMP act inh RFP,Rce1 inhib,PABP polyA inh,Env fusion inh,eIF4H FP inh,CSC inhib,Yeast UUG start
O=C1C(=O)N(CCOCCO)C(c2ccccn2)/C1=C(\O)c1ccccc1 (stereo not given),0,-2,i,8,/,-6,3,3
Cc1cc(C)nc(NS(=O)(=O)c2ccc(N3C(=O)C4CC=C(Cl)CC4C3=O)cc2)n1 (stereo not given),1,5,/,-2,3,-7,/,-8
C=CCOc1c(Cl)cc(CNc2ccc(C)c(Cl)c2)cc1OC,/,/,i,-5,/,1,54,/
CCOC(=O)CC1=C(C(=O)OCC)C(c2ccncc2)C(C#N)=C(N)O1 (stereo not given),-6,5,/,14,/,20,/,-17

A draw from above in order of formula weight, low to high:
Values in the order – MT1-MMP act inh, MT1-MMP act inh RFP, Rce1 inhib, PABP polyA inh, Env fusion inh, eIF4H FP inh, CSC inhib, Yeast UUG start
CCOC(=O)c1cnc(-c2ccccc2)nc1N
 : 0, -1, i, -6, /, 9, 2, -12
Cc1sc2c(c1C)CN(C(C)(C)C)CN2C(=O)c1ccccc1
 : -4, 3, i, 35, /, 21, -1, /
CCc1ccc(C2CC(c3ccc(Cl)cc3)n3nc(N)nc3N2)cc1 (stereo not given)
 : 0, -1, i, -6, -2, -2, -14, -5
O=C1C(=O)N(CCOCCO)C(c2ccccn2)/C1=C(\O)c1ccccc1 (stereo not given)
 : 0, -2, i, 8, /, -6, 3, 3
CC1C(=O)N2CCCc3cc(NC(=O)COc4ccc(Cl)cc4)cc1c32 (stereo not given)
 : 1, 2, i, /, -5, /, -8, 13
Cc1c(C)c2ccc(OCC(=O)N(C)C3CCS(=O)(=O)C3)c(C)c2oc1=O (stereo not given)
 : 3, 3, i, 0, -1, -1, -1, -6
CCOc1ccc(S(=O)(=O)N2CCN(C(=S)NCc3ccccc3)CC2)cc1
 : 3, -8, i, 1, 11, -2, 1, -22

Next section
Values in the order – MT1-MMP act inh, MT1-MMP act inh RFP, Rce1 inhib, PABP polyA inh, Env fusion inh, eIF4H FP inh, CSC inhib, Yeast UUG start
CCC(C)c1ccc(NC(=O)COC(=O)CCNC(=O)c2ccco2)cc1 (stereo not given)
 : -1, 0, /, /, /, /, -8, 1
OC(Cn1cncn1)(Cn1cncn1)c1ccc(F)cc1F
 : -1, 2, i, /, -18, /, 1, -25
CC(NC(=O)C1CCCC1)c1ccc2c(c1)OCCO2 (stereo not given)
 : 6, 4, i, -1, /, -11, -5, -8
Cc1nn(CC(=O)Nc2ccc(S(=O)(=O)N(C)C)cc2)c(C)c1[N+](=O)[O-]
 : 3, 5, i, 12, -6, 1, 2, /
CC(C)OCCCNC(=O)CN1C(=O)CSc2ccc(S(=O)(=O)N3CCOCC3)cc21
 : -2, 3, /, /, -17, /, /, -5
CCc1ccc2c(c1)C1(NN=C(c3cccc4ccccc34)S1)C(=O)N2 (stereo not given)
 : -5, -12, i, -2, /, 12, 9, /
Nc1ccc(CSc2ccccc2)cc1
 : 2, 0, /, /, -17, /, /, -49
